Screens as filed in PubChem.
Measles inh: inhibitors of measles virus growth in infected cells; infected Vero cells, GFP fluorescence, 64 h; hits give low values; z-score (test concentration not listed); 33,000 compounds, 0.1% hits;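 active means z-score under -3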;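 further: score is relative to mean and SD of the compound wells of a plate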
* hit, by the source's call.

Measles inh,compound
-1.5,Cc1cc(C)cc(NS(=O)(=O)c2ccc3[nH]cc(C(=O)NCc4cccs4)c(=O)c3c2)c1
-0.7,COc1cccc(NC(=O)CSc2nc3c(sc(=S)n3-c3ccccc3)c(=O)[nH]2)c1
-0.5,COC(=O)c1c(NC(=O)c2sc3ccccc3c2Cl)sc(C)c1C
-0.22,Cc1cc(NS(=O)(=O)c2ccc(NC(=O)c3cccs3)cc2)nc(C)n1
-0.23,c1ccc(CC2CN=C(N3CCOCC3)S2)cc1 (configuration not stated)
-0.05,O=C(c1cccn2c(=O)c3cc4ccccc4cc3nc12)N1CCN(c2ccc([N+](=O)[O-])cc2)CC1
0.72,CC1(C)CC(C(CCN2C(=O)c3ccccc3C2=O)c2ccccc2)CCO1 (configuration not stated)
-0.2,O=C(CSC1=Nc2ccccc2C2=NC(Cc3c[nH]c4ccccc34)C(=O)N12)NC1CCCCC1 (configuration not stated)
0.5,O=C(Cc1ccc(Cl)cc1)Nc1ccc(S(=O)(=O)Nc2ncccn2)cc1
0.39,Cc1ccc(N2C(=O)C3CCC(C)CC3C2=O)cc1 (configuration not stated)
-1.13,Cc1c(N(C(=O)Cc2cccs2)C2(C(=O)NC3CCCC3)CCCCC2)c(=O)n(-c2ccccc2)n1C
1.23,COC(=O)C1=C(C)NC2=C(C(=O)c3ccccc32)C1c1cc(OC)c(O)cc1Br (configuration not stated)
-0.79,CCn1c2ccccc2c2cc(NC(=O)C(=O)NCCCc3ccccc3)ccc21
0.44,CC1=C(C(=O)Nc2ccccn2)C(c2ccc3c(c2)OCO3)C2=C(CCCC2=O)N1 (configuration not stated)
0.44,CCOC(=O)c1cccc(C(=O)Nc2ccc(NC(C)=O)cc2)n1
0.35,O=C1Nc2cc(C(=O)N3CCOCC3)ccc2SC1N1CCOCC1 (configuration not stated)
1.3,Cc1ccnc(NS(=O)(=O)c2ccc(NC(=O)C(Sc3ccccc3)c3ccccc3)cc2)n1 (configuration not stated)
-0.04,CCOC(=O)c1[nH]c2ccc(OC)cc2c1C(NC(C)C)c1ccc([N+](=O)[O-])cc1 (configuration not stated)
2.2,C=CCNC(=O)CN1C(=O)COc2ccc(Cl)cc21
-0.63,CC1CCC(N2C(=O)c3ccccc3C2C(=O)NC2CCCCC2)CC1 (configuration not stated)
0.05,COc1cc(C(=O)Nc2cccc(-c3nc4cc(C)ccc4o3)c2C)cc(OC)c1OC
0.24,CCOC(=O)c1ccc(N=C2SC(C(=O)Nc3ccccc3Cl)CC(=O)N2C)cc1 (configuration not stated)
0.63,CCc1nnc(NC(=O)C2CCCCC2C(=O)O)s1 (configuration not stated)
0.8,COc1cc2nc(-c3ccc4c(c3)C(=O)N(c3ccccc3OC)C4=O)oc(=O)c2cc1OC
-0.57,O=C(O)c1ccc(Nc2nc(-c3ccc([N+](=O)[O-])cc3)nc3ccccc23)cc1
0.12,COc1cc2c(=O)n(CC3CCCO3)c(=O)n(CC(=O)Nc3ccc(C)cc3)c2cc1OC (configuration not stated)
-0.95,CCOC(=O)C1=C(CC)NC2=C(C(=O)CCC2)C1c1ccc(N(CC)CC)cc1 (configuration not stated)
-1.43,CC(C)c1ccc(C2C(C(=O)c3ccco3)=C(O)C(=O)N2Cc2cccnc2)cc1 (configuration not stated)
0.04,CCOc1ccc(C(=O)Nc2cc(-c3nc4ccccc4[nH]3)ccc2C)cc1Cl
-0.5,O=C1C=C(NCCN2CCOCC2)CC(c2ccccc2)C1 (configuration not stated)
-0.1,CC1CCCC(NC(=O)Cc2cn(C)c3ccccc23)C1C (configuration not stated)
-0.15,CC(C)(C)C1CCc2oc3ccc(NS(=O)(=O)c4cccc([N+](=O)[O-])c4)cc3c2C1 (configuration not stated)
1.49,CC(=O)N1CCc2cc(S(=O)(=O)N3CCc4ccccc4C3)ccc21
0.92,CCCn1c(=N)c(C(=O)OCC)cc2c(=O)n3ccccc3nc21
-0.64,O=C(CCc1ccccc1)NCc1ccccc1
1.14,CCCCC1CC(C)(c2csc(Nc3ccccc3Cl)n2)OC1=O (configuration not stated)
-0.59,CCn1c(=S)[nH]c2scc(-c3ccc(OC)cc3)c2c1=O
-0.46,Cc1cc(C)cc(-n2ccnc2SCC(=O)Nc2ccc(C)c(Cl)c2)c1
-0.66,O=C(c1ccc(SCc2cccc(Br)c2)c([N+](=O)[O-])c1)N1CCN(c2ccccn2)CC1
1.87,COc1ccc(CC(=O)N2CC(=O)Nc3ccc(F)cc3C2c2ccccc2)cc1 (configuration not stated)
-1.8,O=C(c1n[nH]c(=O)c2ccccc12)N1CCN(c2ccccc2)CC1
-0.04,CN1C(=O)c2ccccc2Sc2ccc(C(=O)O)cc21
-1.17,Cc1ccc(O)c(-n2nc3ccccc3n2)c1
1.42,Cc1ccc(NCc2nc(-c3ccc(C)cc3)no2)cc1
1.28,CCOc1cc(C2Nc3cc(C)c(C)cc3NC3=C2C(=O)CC(C)(C)C3)cc([N+](=O)[O-])c1O (configuration not stated)
0.3,Cc1ccc2c(c1)C(c1ccccc1)N(C(=O)CCC1CCCC1)CC(=O)N2 (configuration not stated)
-0.97,CSc1ccccc1N1C(=O)C=CC1=O
0.23,Cc1ccc2nc(NCc3ccccc3)c(C=Nc3ccccc3)c(=O)n2c1
-0.1,CSc1nn2c(=O)c(C(C)(C)C)nnc2s1
-0.26,COc1cccc2c1OC1(C)CC2NC(=O)N1 (configuration not stated)
2.07,CCOc1cccc2cc(C(N)=O)c(=Nc3ccc(C(C)=O)cc3)oc12
-1.03,CC(C)C(NS(=O)(=O)c1cccs1)C(=O)NC(c1ccccc1)c1ccccc1 (configuration not stated)
-0.96,O=C(CCC1N=C2c3ccccc3N=C(SCc3ccc(F)cc3)N2C1=O)N1CCN(c2ccccc2)CC1 (configuration not stated)
0.56,CCC(C)NC(=O)CCS(=O)(=O)c1cc(Br)cc2c1N(C(C)=O)C(C)C2 (configuration not stated)
-1.84,CC1NC2=C(C(=O)CC(c3ccccc3)C2)C(c2ccc(Br)cc2)C1C#N (configuration not stated)
-1.16,Cc1cc(OCc2ccc([N+](=O)[O-])cc2)c2c(-c3ccccc3)cc(=O)oc2c1
-0.38,Cc1ccc(C2OC3(C(=O)c4ccccc4C3=O)C3C(=O)N(c4cccc(C)c4C)C(=O)C23)cc1 (configuration not stated)
-0.92,CC1CC(C)(C)NC(=S)N1CCCC(=O)Nc1ccc(Cl)cc1 (configuration not stated)
0.64,COc1ccc([N+](=O)[O-])cc1NC(=O)Cc1c(C(=O)O)[nH]c2ccccc12
0.19,COc1ccc(C2Nc3ccccc3C(=O)N2c2ccc(Cl)cc2)cc1COc1ccccn1 (configuration not stated)

Following part.
Measles inh,compound
1.29,Cc1cc2c(cc1Cl)N1CCS(=O)(=O)N=C1S2
-2.62,O=C(CCSCc1ccccc1F)N1CCN(c2ccccn2)CC1
0.2,CCC(=O)Nc1ccc(-c2nc3cc(Cl)ccc3c(=O)o2)cc1
-0.06,O=C(Nc1cccnc1)c1sc2cc(F)ccc2c1Cl
1.01,CCCN1C(=O)C(C(O)c2ccc(OC)c(OCC)c2)SC1=Nc1ccccc1 (configuration not stated)
0.18,COC(=O)C1=C(C)NC(=O)CC1c1ccc(Cl)c([N+](=O)[O-])c1 (configuration not stated)
1.56,COc1ccc(-c2nc(SCC(=O)Nc3ccccc3F)c3c(=O)n(C)c(=O)n(C)c3n2)cc1
-0.84,Cc1c(C(=O)N2CCN(Cc3ccc4c(c3)OCO4)CC2)sc2ncn(CC(=O)Nc3cccc(C(F)(F)F)c3)c(=O)c12
2.19,CC(=O)NC1=NN(C(C)=O)C(c2ccc(F)cc2)S1 (configuration not stated)
-0.32,CCCOc1ccc(-c2nn(-c3ccccc3)cc2C2NC(=O)NC(C)=C2C(=O)OC)cc1 (configuration not stated)
-0.9,NS(=O)(=O)c1ccc(CCn2c(SCc3cccc(Cl)c3)nc3ccccc3c2=O)cc1
-0.12,CCCOC(=O)c1ccc(Nc2cc(C)nc3ccc(Cl)cc23)cc1
1.32,Cn1c(=O)c(C(=O)Nc2cccnc2)c(O)c2ccccc21
1.06,CC1CC(=O)N(c2ccc(NCCc3c[nH]c4ccccc34)c([N+](=O)[O-])c2)C1=O (configuration not stated)
-1.64,Cc1cc(I)ccc1N1C(=N)SCC1=O
-1.25,O=[N+]([O-])c1cccc(C=Nc2ccc(S(=O)(=O)c3ccc(N=Cc4cccc([N+](=O)[O-])c4)cc3)cc2)c1
-0.85,c1ccc(CC2NCCc3c2[nH]c2ccccc32)cc1 (configuration not stated)
-0.77,CCCn1c(SCC(=O)Nc2ccc(OC)cc2)nnc1-c1ccncc1
-0.16,Cc1cc(C)c(C#N)c(SCC(=O)Nc2ccc([N+](=O)[O-])cc2)n1
0.09,Clc1cccc(CSc2nnc3sc4ccccc4n23)c1
-0.96,CCOc1ccccc1Nc1nc(-c2ccccc2F)nc2ccccc12
-0.23,Cc1nc2sccn2c1-c1csc(Nc2ccc(N)cc2)n1
1.5,CC(=O)Nc1ccc(Nc2ncc([N+](=O)[O-])cc2[N+](=O)[O-])cc1
-0.95,CN(CC(=O)Nc1cccc(C(F)(F)F)c1)S(=O)(=O)c1ccc(Br)s1
-0.23,COC(=O)c1ccccc1NC(=O)Cn1nc(-c2ccc(OC)cc2)ccc1=O
-0.52,O=[N+]([O-])c1ccc2nc(NC3CCCCCCC3)sc2c1
-0.75,Cc1cc(NS(=O)(=O)c2c(C)n[nH]c2C)ccc1Br
-0.31,OCC(c1ccccc1)C1CCCCC1 (configuration not stated)
0.77,Cn1c(=O)c2c(nc(SCC(=O)O)n2Cc2cccc(Cl)c2)n(C)c1=O
-1.33,O=C(Nc1ccc(F)cc1)c1ccc([N+](=O)[O-])o1
1.15,Nc1nc(SCC(=O)c2ccc(Cl)cc2)n[nH]1
-0.94,CCCc1cc(NCCCN(C)C)n2c(nc3ccccc32)c1C#N
0.32,COC(=O)c1ccccc1NC(=O)c1cccc(OC)c1
0.46,COc1ccc(-c2nn(C)c(=O)c3ccccc23)cc1NC(=O)c1ccccc1OC
-0.68,CC(=O)c1c(C)[nH]c(C(=O)NCCN(C)Cc2ccccc2)c1C
0.93,CC(=O)Oc1cccc(C=Cc2nc3ccccc3c(=O)n2-c2cccc(Cl)c2C)c1
1.08,CCOc1ccccc1C(=O)Nc1ccc2nc(N3CCC(C)CC3)cc(C)c2c1
0.3,COc1ccccc1N1CCN(C(=O)c2cc3n(n2)C(C(F)(F)F)CC(c2ccc4c(c2)OCO4)N3)CC1 (configuration not stated)
-0.11,CCOC(=O)c1cccc(NC(=O)C(C)N2C(=O)c3ccccc3C2=O)c1 (configuration not stated)
0.28,O=[N+]([O-])c1ccc(-c2nc3ccccc3c3nc4ccccc4n23)cc1

18 entries from above, arranged by molecular weight, falling.
Measles inh,compound
0.3,COc1ccccc1N1CCN(C(=O)c2cc3n(n2)C(C(F)(F)F)CC(c2ccc4c(c2)OCO4)N3)CC1 (configuration not stated)
-0.95,CN(CC(=O)Nc1cccc(C(F)(F)F)c1)S(=O)(=O)c1ccc(Br)s1
0.93,CC(=O)Oc1cccc(C=Cc2nc3ccccc3c(=O)n2-c2cccc(Cl)c2C)c1
0.46,COc1ccc(-c2nn(C)c(=O)c3ccccc23)cc1NC(=O)c1ccccc1OC
1.08,CCOc1ccccc1C(=O)Nc1ccc2nc(N3CCC(C)CC3)cc(C)c2c1
0.77,Cn1c(=O)c2c(nc(SCC(=O)O)n2Cc2cccc(Cl)c2)n(C)c1=O
-0.23,COC(=O)c1ccccc1NC(=O)Cn1nc(-c2ccc(OC)cc2)ccc1=O
-0.11,CCOC(=O)c1cccc(NC(=O)C(C)N2C(=O)c3ccccc3C2=O)c1 (configuration not stated)
-0.96,CCOc1ccccc1Nc1nc(-c2ccccc2F)nc2ccccc12
-0.75,Cc1cc(NS(=O)(=O)c2c(C)n[nH]c2C)ccc1Br
0.28,O=[N+]([O-])c1ccc(-c2nc3ccccc3c3nc4ccccc4n23)cc1
-0.94,CCCc1cc(NCCCN(C)C)n2c(nc3ccccc32)c1C#N
0.09,Clc1cccc(CSc2nnc3sc4ccccc4n23)c1
-0.68,CC(=O)c1c(C)[nH]c(C(=O)NCCN(C)Cc2ccccc2)c1C
1.5,CC(=O)Nc1ccc(Nc2ncc([N+](=O)[O-])cc2[N+](=O)[O-])cc1
-0.52,O=[N+]([O-])c1ccc2nc(NC3CCCCCCC3)sc2c1
0.32,COC(=O)c1ccccc1NC(=O)c1cccc(OC)c1
-0.31,OCC(c1ccccc1)C1CCCCC1 (configuration not stated)

Following part
Measles inh,compound
1.19,Cc1ccc(N=c2oc3ccc(Br)cc3cc2C(=O)Nc2nccs2)cc1C
2.38,O=C(NCCSc1c[nH]c2ccccc12)c1ccc(Br)o1
1.24,CCOC(=O)c1cccc(NC(=O)C(C(C)C)N2C(=O)c3ccccc3C2=O)c1 (configuration not stated)
-0.11,CCCCn1c(-c2cccc([N+](=O)[O-])c2)nc(=S)c2c1CCCC2
1.27,O=c1c(O)c(-c2ccccc2)oc2ccccc12
-1.69,CCN(CC)C(=O)c1ccc(SCc2ccncc2)c([N+](=O)[O-])c1
0.35,COc1ccc(C2C3=C(CC(C)(C)CC3=O)OC3=C2C(=O)CC(C)(C)C3)cc1OC
0.28,CCCC12CN3CC(C)(CN(C1)C3c1ccc(O)cc1)C2=O (configuration not stated)
1.73,CC1(C)Cc2[nH]c(=O)c(C(=O)O)cc2CO1
-0.33,CCOC(=O)c1ccc(NC2SC(=O)N(Cc3cccc(C(=O)OC)c3)C2=O)cc1 (configuration not stated)
0.09,Cc1ccc(C2C3=C(CC(C)(C)CC3=O)N(CCc3ccccc3)C3=C2C(=O)CC(C)(C)C3)cc1
-0.05,CC(=O)Oc1ccc2nc(CN3C(=O)c4ccc([N+](=O)[O-])cc4C3=O)oc(=O)c2c1
-0.98,CCN(CC)c1nc(Nc2ccccc2)nc(OC(C(F)(F)F)C(F)(F)F)n1
0.07,Brc1ccc(CSc2cccc3cccnc23)cc1
-1.1,O=C(Cn1nc(-c2ccccc2)ccc1=O)NCCN1CCN(c2cccc(Cl)c2)CC1
0.23,COC(=O)C(NC(C)=O)(Nc1nc2ccc([N+](=O)[O-])cc2s1)C(F)(F)F (configuration not stated)
-2.24,COC(=O)c1ccc(C2/C(=C(\O)c3ccc(Cl)cc3)C(=O)C(=O)N2CC(C)C)cc1 (configuration not stated)
0.9,CN(CCC#N)S(=O)(=O)c1ccc2[nH]cc(C(=O)NCc3ccccc3)c(=O)c2c1

A portion of the library; count on the stated rates, not on these rows.
